# SARS PLpro yeast: inhibitors of SARS-CoV papain-like protease in yeast; hit rate 0.19% among 330,000; S. cerevisiae expressing SARS-CoV PLpro, growth rescue; control for the full effect not named in the record; Potency, µM (doses to about 32.9 µM), without a hit: at the highest dose activity, positive = growth rescue; AID 485353; further: 0% is about no effect; nearly all actives have a fitted effect of over 55% in size; growth read by luminescence after 48 h
# 2A StopGo: FMDV 2A StopGo reporter, luciferase signal; hit rate 1.2% among 410,000; Potency, µM (doses to about 57.9 µM), inactives show at the highest dose signal change, negative = less light; AID 1159524; human cells with a luciferase reporter of 2A StopGo recoding; control for the full effect not named in the record; active = well fitted falling curve with a large enough effect; inconclusive = small, poorly fitted or top-dose-only effect; inactive = no such curve, though single readings can be large or run the other way; tested in HEK293T cells; further: on the % scale 0 is the no-effect control and ±100 the full control effect; nearly all actives have a fitted effect of over 45% in size; luciferase light after 4 h
# MARV entry inh: inhibitors of Marburg virus binding or cell entry. Marburg virus pseudotyped entry inhibition, cell reporter; control for the full effect not named in the record; about a third of the inactives were read at about 46 µM. Potency, µM (doses to about 37.8 µM), inactives show at the top dose activity change, negative = inhibition, usual class: inhibitors. hit rate 1.8% among 300,000; active = well fitted inhibition curve with a large enough effect; inconclusive = small, poorly fitted or top-dose-only effect, or effect the other way; inactive = flat fitted curve, though single readings scatter; tested in HEK293 cells; about a fifth of its hits are not listed in these tables; further: on the % scale 0 is the no-effect control and ±100 the full control effect; luciferase read-out
# RE007 growth inh: less growth of the S. pombe RE007 Vpr strain; S. pombe RE007 Vpr strain, BacTiter-Glo ATP luminescence, 24 h; control for the full effect not named in the record; Potency, µM (highest dose often 92.2 µM), for inactives: at the top dose activity change, negative = less growth; hit rate 0.21% among 360,000; active = well fitted falling curve with a large enough effect; inconclusive = small, poorly fitted or top-dose-only effect; inactive = no such curve, though single readings can be large or run the other way;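 further: on the % scale 0 is the no-effect control and ±100 the full control effect; nearly all actives have a fitted effect of over 50% in size; the assay follows cell death caused by Vpr and the record does not say whether a fall means rescue or toxicity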
#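 Fission yeast RE007 carrying one integrated HIV-1 vpr copy, seeded at OD 0.01 in PMG+AL medium with 23 nL pinned compound. Grown 24 h at 30 degrees; viability read by BacTiter-Glo luminescence after 5 min.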
# NS1 inh: inhibitors of influenza NS1 protein function; S. cerevisiae slowed by influenza A NS1, growth recovery by OD600; Potency, µM (titrated, usually from 46.1 µM), for the others: top-dose activity, positive = more growth; hit rate 0.4% among 270,000; further: actives are rising curves; nearly all actives have a fitted effect of over 50% in size
#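 Read-out: OD600 growth recovery of NS1-expressing budding yeast. Cells grown overnight at 30C in -URA glucose medium, washed, resuspended and diluted 1:100 in 2% galactose assay medium, pH 6.0. Same strain lacking NS1 served as positive control.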
# Cruzain inh noDet: inhibitors of Trypanosoma cruzi cruzain without detergent; Potency, µM, for the others: max response, negative = inhibition, usual class: inhibitors; AID 1476; hit rate 2.3% among 200,000; purified cruzain, Z-FR-AMC fluorescence, no detergent; active means well fitted curve in the direction sought with a large enough effect; inconclusive means small, poorly fitted or top-dose-only effect, or another doubt; inactive means no such curve, though single readings can be large; an effect the other way counts as inactive or inconclusive;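 further: plate controls were enzyme without inhibitor for no effect and buffer without enzyme for full effect; nearly all actives have a fitted effect of over 40% in size; top concentration of the series not given in the record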
# Target sequence (P25779 123-467 limits assumed): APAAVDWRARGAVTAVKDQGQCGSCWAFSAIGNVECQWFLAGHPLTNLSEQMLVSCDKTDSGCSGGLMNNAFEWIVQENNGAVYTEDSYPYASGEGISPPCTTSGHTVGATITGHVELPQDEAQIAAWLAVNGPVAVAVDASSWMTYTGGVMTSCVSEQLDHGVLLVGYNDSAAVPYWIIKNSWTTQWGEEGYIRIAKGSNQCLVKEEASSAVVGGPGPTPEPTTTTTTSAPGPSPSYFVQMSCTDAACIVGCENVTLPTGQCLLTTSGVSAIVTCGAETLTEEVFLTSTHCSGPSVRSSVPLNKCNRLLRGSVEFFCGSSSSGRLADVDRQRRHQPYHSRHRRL
#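 Detergent-free condition (0.00005% Triton X-100) in acetate buffer pH 5.5 with DTT. 1.5 nM enzyme and compound were pre-mixed 15 min, then 2 uM Z-FR-AMC substrate added; reaction progress from fluorescence change between first and third reads (60 s).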
# Lassa entry inh: Lassa virus entry inhibition | Lassa virus pseudotype entry inhibition, cell reporter; control for the full effect not named in the record | Potency, µM (doses to about 37.9 µM), without a hit: at the top dose activity change, negative = inhibition, usual class: inhibitors | hit rate 1.2% among 300,000; active means well fitted inhibition curve with a large enough effect; inconclusive means small, poorly fitted or top-dose-only effect, or effect the other way; inactive means flat fitted curve, though single readings scatter; tested in HEK293 cells; further: on the % scale 0 is the no-effect control and ±100 the full control effect; nearly all actives have a fitted effect of over 50% in size; luciferase read-out
# Cruzain inh Det: blocks cruzain activity in presence of Triton detergent; P25779; hit rate 0.43% among 200,000; Potency, µM, without a hit: max response, negative = inhibition, actives largely listed as inhibitors; purified cruzain, Z-FR-AMC fluorescence, 0.01% Triton; active means well fitted curve in the direction sought with a large enough effect; inconclusive means small, poorly fitted or top-dose-only effect, or another doubt; inactive means no such curve, though single readings can be large; an effect the other way counts as inactive or inconclusive;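 further: plate controls were neutral wells for no effect and buffer without enzyme for full effect; nearly all actives have a fitted effect of over 40% in size; top concentration of the series not given in the record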
#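 Purified cruzain (1.5 nM final) was preincubated with compounds for 15 min at room temperature in 100 mM sodium acetate pH 5.5, 5 mM DTT, 0.01% Triton X-100. Reaction started with 2 uM Z-FR-AMC; AMC fluorescence change over 60 s gave activity.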
# The depositor's hits bear a star; ? = inconclusive; / = no result given; [ ] = dose if it differs, or a comment. Unless noted, the call rests on the fitted dose curve; in most records, active means well fitted rising curve with a large enough effect; inconclusive means small, poorly fitted or top-dose-only effect; inactive means no such curve, though single readings can be large or run the other way. Potency means the concentration at half of the fitted maximal effect. The order is random; 4.7% or so of the library scored in one or more.
SMILES,SARS PLpro yeast,2A StopGo,MARV entry inh,RE007 growth inh,NS1 inh,Cruzain inh noDet,Lassa entry inh,Cruzain inh Det
O=C(CN1C(=O)/C(=C/c2ccc(Cl)cc2)SC1=S)NC1C=CS(=O)(=O)C1 (stereo unspecified),2%,0%,/,-4%,-5%,/,/,/
Cc1cc(=O)n(-c2ccc(Cl)cc2)c(=O)[nH]1,-10%,8%,7%[46.1 µM],1%,-4%,/,-4%[46.1 µM],/
COc1ccc(S(=O)(=O)N2CCC(C(=O)NCc3cccnc3)CC2)cc1Cl,2%,14%,0%[46.1 µM],-12%,4%,/,-2%,/
Cc1cccc(N2C(=O)N(c3ccccc3C)C3CS(=O)(=O)CC32)c1 (stereo unspecified),/,-3%,18%,11%,-8%,3%,-2%,4.9%
CC1(C)CC2(CCCN3C(=O)CSC32)CCS1 (stereo unspecified),-1%,-3%,13%,-13%,5%,-1%,1%,0.2%
CC(=O)c1c(C)nc(-c2ccc(Cl)cc2)nc1N=CN(C)C,-19%,38%[activator],-15%,-12%,-12%,-2%,-5%,1.8%
CCCN(C(=O)c1cc2c(=O)oc3ccc(C)cc3c2s1)c1ccc(OCC)cc1,/,-24%,18%[46.1 µM],/,/,-1%,17%[46.1 µM],1.1%
O=C(NCC(c1ccco1)N1CCCCC1)c1cnc(Cl)c(Cl)c1 (stereo unspecified),2%,-20%,-10%,15%,/,/,-24%,/
Cn1nc(C(C)(C)C)c([N+](=O)[O-])c1C(=O)Nc1cccc2ccccc12,0%,?,/,9%,-6%,/,/,/
COc1ccccc1CNS(=O)(=O)c1ccc(S(=O)(=O)NC2CC2)cc1,-3%,-7%,-9%[46.1 µM],1%,-17%,/,8%,/
Cc1cc(C)n(-c2cccc3cccnc23)n1,-1%,-21%,24%,3%,7%,-20%,4%,4.8%
O=C(Nc1ccc(Cl)cc1)c1ccc2ncsc2c1,-4%,39%[activator],/,-14%,-3%,/,/,/
CCn1cc(C(=O)N2CCN(c3cc(Cl)ccc3C)CC2)c(=O)c2cc(S(=O)(=O)N3CCCCC3)ccc21,/,-14%,29%[46.1 µM],/,/,-8%,-1%[46.1 µM],0.3%
CCc1ccc(S(=O)(=O)c2cnc3ccc(OC)cc3c2N2CCCC(C)C2)cc1 (stereo unspecified),/,-17%,?,/,/,-10%,/,-6.0%
O=C(c1ccc(COc2ccc(Cl)cc2)o1)N1CCN(Cc2ccc3c(c2)OCO3)CC1,0%,/,-21%,9%,-58%,14%,?,-3.9%
O=C(NC1=NCCS1)c1ccccc1Cl,-1%,20%,?,3%,-25%,/,?,/
NC(=O)c1c(NC(=O)C(=O)N2CCOCC2)sc2c1CCC2,-4%,10%,/,9%,-10%,/,/,/
COc1ccc(-c2nnc(SCC(=O)NCCc3ccccc3)nc2-c2ccc(OC)cc2)cc1,/,-10%,/,/,/,-9%,1%[46.1 µM],1.0%
Cc1cc(Cl)c2ccc(Cl)cc2n1,-1%,36%[activator],19%[46.1 µM],-16%,3%,/,12%[46.1 µM],/
CS(=O)(=O)N1CCN(C(=S)NCc2ccc(F)cc2)CC1,-1%,-9%,-16%,-1%,2%,6%,-2%,-1.9%

# Next part, starting with the last two of the part before.
SMILES,SARS PLpro yeast,2A StopGo,MARV entry inh,RE007 growth inh,NS1 inh,Cruzain inh noDet,Lassa entry inh,Cruzain inh Det
Cc1cc(Cl)c2ccc(Cl)cc2n1,-1%,36%[activator],19%[46.1 µM],-16%,3%,/,12%[46.1 µM],/
CS(=O)(=O)N1CCN(C(=S)NCc2ccc(F)cc2)CC1,-1%,-9%,-16%,-1%,2%,6%,-2%,-1.9%
Cc1ccnc(NS(=O)(=O)c2ccc(NC(=O)CCc3ccccc3)cc2)n1,2%,17%,?,5%,29%,/,15%[46.1 µM],/
Cc1ccc(C2CC(=O)C=C(Nc3ccc(Cl)cc3)C2)cc1 (stereo unspecified),2%,-10%,6%,-9%,0%,?,5%,-1.4%
CN(CCOc1ccccc1)C(=O)C1CCC(=O)N(CCc2ccc(Cl)cc2)C1 (stereo unspecified),2%,?,?,6%,2%,/,-6%,/
Clc1ccc(-[n+]2c(-c3cccc(Br)c3)[nH]c3nc4ccccc4nc32)cc1,-1%,-21%,?,-9%,7%,/,-3%,/
Cc1cc(C)cc(OC(C)C(=O)Nc2c(C(=O)c3ccccc3)oc3ccccc23)c1 (stereo unspecified),/,-5%,-25%[46.1 µM],/,/,-14%,-2%[46.1 µM],-2.6%
O=c1c2ccccc2nc(/C=C/c2ccc([N+](=O)[O-])o2)n1-c1ccc(O)cc1,0%,?,3.2µM*,1%,/,/,?,/
COc1ccc(N(CC(=O)N2CCOCC2)S(C)(=O)=O)cc1Cl,-1%,5%,?,6%,5%,/,-3%,/
Cc1nnc(-n2ncc(C#N)c2N)c2nn(-c3cccc(Cl)c3)c(C)c12,-18%,-4%,1%,-7%[3.69 µM],6%,?,-6%,-1.3%
C=CCC1(CC)C(=O)NC(=S)NC1=O,/,-35%,?,1%,/,/,?,/
O=C(CSc1nc2ccccc2o1)c1ccccc1,12%,26%,?,-17%,-5%,-2%,-13%,-3.9%
O=C(CSc1nc2ccc(Nc3nc(N4CCCC4)nc(N4CCCC4)n3)cc2s1)NCc1ccco1,1%,-28%,/,-2%,3%,/,/,/
CN(C(=O)COC(=O)COc1ccc(Cl)cc1Cl)c1c(N)n(Cc2ccccc2)c(=O)[nH]c1=O,-1%,-11%,2%,-14%,/,/,-9%,/
CCn1cc(Br)c(C(=O)Nc2ccc(F)cc2F)n1,-2%,53%[activator],/,-21%,-11%,/,/,/
COc1ccc(N2CC(NC(=O)/C=C\c3ccc(OC)c(OC)c3)CC2=O)cc1 (stereo unspecified),/,-8%,/,/,/,-8%,2%[46.1 µM],-8.0%
O=C(NNC(=S)Nc1ccc(Br)cc1)c1ccccc1Br,7%,16%,2%,-1%,-28%,/,?,/
CC(=O)N1CCOc2ccc(S(=O)(=O)Nc3ccc(Cl)cn3)cc21,0%,39%[activator],/,-1%,2%,/,/,/
COc1ccccc1N(C)S(=O)(=O)c1ccc(Cl)c(C(=O)NCC2(N(C)C)CCCCC2)c1,1%,-12%,?,4%,/,/,-21%,/
Cc1ccccc1Cc1c(C)nc2nc(SCC(=O)NCCCN3CCCCC3)nn2c1C,0%,-20%,?,9%,0%,/,?,/
OCc1nnn(-c2cccc(C(F)(F)F)c2)c1CO,4%,-11%,?,37%,1%,-5%,-8%,4.2%
O=C(c1ccc(NS(=O)(=O)c2ccc(Cl)c(Cl)c2)cc1)N1CCOCC1,4%,-33%,19%[46.1 µM],-4%,/,/,-10%,/
O=C(C1=C[C@H](c2ccc(Br)cc2)C[C@H](OCCCCO)O1)N1CCN(Cc2ccc3c(c2)OCO3)CC1,0%,-29%,/,-7%,-15%,/,/,/
Cc1ccc(-n2ncc3c2CCCC3NC(=O)CCc2c(C)noc2C)cc1C (stereo unspecified),/,-1%,-26%,2%,4%,/,-20%,/
CCCN1C(=O)N(C)C(N(O)C(=O)NC)C1(C)C (stereo unspecified),1%,-6%,?,-6%,-2%,4%,-2%,5.5%
CC(C)CNC1CCS(=O)(=O)C1 (stereo unspecified),1%,-9%,/,-6%,6%,/,/,/
Cc1cccc(NC(=O)CN2C(=O)N/C(=C\c3ccc(N4CCOCC4)cc3)C2=O)c1,-4%,18%,28%,-26%,1%,-21%,-16%,-4.0%
CCC(C)(C)NC(=O)C(c1ccc(OC)cc1)N(C(=O)CCC(=O)Nc1cc(C)on1)c1cc(OC)ccc1OC (stereo unspecified),2%,2%,?,-16%,-2%,/,-16%,/
CCOC(=O)c1nnn(-c2nonc2N)c1CS(=O)(=O)c1ccccc1,3%,-15%,-16%,3%,2%,0%,-2%,3.2%
COc1ccc2nc(NC(=O)CSc3nnnn3C)sc2c1,2%,65%[activator],/,4%,3%,/,/,/
O=C(CCN1C(=O)/C(=C/c2ccccc2)SC1=S)Nc1cccnc1,2%,-13%,?,1%,-2%,/,?,/
OC(CN1CCCC1)Cn1ccc2ccccc21 (stereo unspecified),0%,4%,/,-8%,5%,/,/,/
O=S(=O)(Nc1ccccc1Cl)c1ccc(-c2ccccn2)s1,/,16%,0%[46.1 µM],1%,/,/,17%[46.1 µM],/
CCc1cccc(NC(=S)Nc2cccc3ccccc23)c1,-6%,46%[activator],/,-4%,24%,/,/,/
Cc1cccc(NC(=O)CSc2nc3ccccc3c3nc(CCn4cncc4C)nn23)c1,/,?,/,/,/,3%,-17%[46.1 µM],-1.0%
CCOC(=O)CCSc1nc(-c2ccc3c(c2)OCO3)cc(C(F)(F)F)c1C#N,8%,/,15%,1%,-3%,?,5%,7.5%
Cc1noc(/C=C/N(C)C)c1S(=O)(=O)N1CCCC(C(=O)NC2CCCCC2)C1 (stereo unspecified),6%,-10%,?,-8%,?,0%,-17%,-9.3%
Cc1ccc(-c2nnc(-n3nc(C)cc3C)c3ccccc23)cc1,-7%,0%,8%,-8%,-16%,5%,-10%,1.5%
CCCCOC(=O)c1ccc(NC(=O)CSc2nc3c(c(=O)[nH]2)CCCC3)cc1,/,-14%,9%[46.1 µM],/,/,-7%,-16%[46.1 µM],-8.7%
CCOC(=O)N1CCc2c(sc3c2c(=O)n(Cc2ccccc2)c(=O)n3CC(=O)Nc2cccc(C)c2)C1,/,-17%,?,/,/,-13%,9%[46.1 µM],-2.7%
COCCN(C(=S)Nc1c(C)cccc1C)C(C)c1ccco1 (stereo unspecified),4%,21%,/,2%,1%,/,/,/
CSc1ccc(CN2CCN(C3CCCC3)C(CCO)C2)cc1 (stereo unspecified),0%,9%,?,1%,2%,/,?,/
CCOP(=O)(c1c(F)c(F)c(F)c(F)c1F)C1(O)CCCCC1 (stereo unspecified),5%,-29%,3%[46.1 µM],0%,-4%,4%,6%,2.0%
COC(=O)c1sc2nc(C)cc(-c3ccccc3)c2c1N,4%,-28%,9%,20%,-1%,-1%,18%,-7.7%

# Compound activity (PubChem BioAssay)
